Ba CapD inh = blocks the Bacillus anthracis CapD enzyme; purified CapD enzyme, fluorescence intensity read-out; hits give low values; some hits fall short of the stated cut; z-score (no concentration beside the values); 0.23% of 140,000 active;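 active = z-score under -4 in either of two replicates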;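 note: stock transfer was 100 nL into about 40 µL; score is relative to mean and spread of the plate; one replicate is shown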
AID504770 = growth inhibitors of E. coli YBA685 in a screen for V. cholerae RctB (chromosome II replication) inhibitors. E. coli YBA685 rctB-dependent plasmid, OD600 growth, 3 h; hits give low values. z-score (concentration not given with the values). 0.27% of 130,000 active. AID 504770;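 active = z-score under -2 on both plates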;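 note: wells of about 30 µL received 100 nL stock; score is relative to mean and SD of the test wells; the first replicate is given; strong numbers were not always called active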
An asterisk follows results filed as active; · = no result given. Compounds were not picked by outcome. About 0.39% of those tested had a hit in this group.

SMILES	Ba CapD inh	AID504770
CN(Cc1ccco1)C(=O)CCS(=O)(=O)c1ccc2c(c1)n(C)c(=O)c(=O)n2C	0.075	0.15
Cc1nnc(OCc2cccc([N+](=O)[O-])c2)c2ccccc12	-0.665	·
Cc1ccc(S(=O)(=O)/N=C2\C=C(Sc3ncn[nH]3)C(=O)c3ccccc32)cc1	·	1.5
COc1ccc(COCC(O)CS(=O)(=O)c2ccc(C)cc2)cc1 (configuration not stated)	0.775	0.65
COc1ccc(C(C)(C)C)cc1NC(=O)COC(=O)C1CC(=O)N(Cc2ccco2)C1 (configuration not stated)	·	0.55
O=C(NN1C(=O)CCC1=O)c1cccc(Br)c1	·	0.1
FC(F)(F)c1ccnc(NCCNC(=S)Nc2ccc3c(c2)OCCO3)n1	0.505	-0.2
CCCCNc1ncc2c(n1)CC(c1ccccc1)CC2=O (configuration not stated)	0.925	-0.3
Cc1c(C(C)C)c(=O)n(-c2ccc(S(=O)(=O)NC(C)C)cc2)n1C	·	-0.55
CCN(C(=O)CSc1nnc(C)c(=O)[nH]1)C1CCCCC1	·	-0.05
O=c1oc2ccc(Cl)cc2cc1-c1nc(-c2ccccc2)c2cc(Cl)ccc2n1	1.5	·
Cc1ccccc1CN(C)C(C)C(=O)NCc1ccccc1 (configuration not stated)	·	-0.45
CCOC(=O)c1cc(-c2ccccc2)n(CC(=O)N2CCc3ccccc32)c1C	0.015	0.55
O=C(OCc1ccccc1)Sc1nnc(-c2ccc(Br)cc2)o1	0.69	0.4
O=C(Cn1c(SCc2cccc(F)c2)nc2ccncc21)N1CCCCCC1	0.875	-0.2
CCCOc1nnc(-c2ccc(Cl)cc2)c2ccccc12	-0.025	·
Cc1nn(C)c(C)c1NC(=O)COC(=O)c1n[nH]c(=O)c2ccccc12	·	-0.4
COC(=O)c1sc(-c2ccc(CC(C)C)cc2)cc1N	1.35	·
CN(Cc1ccccc1)C(=S)NC(=O)c1ccccc1	70.8	-0.6
Cc1ccc(-c2nc(SCC(=O)NCc3ccco3)c(-c3ccc(F)cc3)[nH]2)cc1	2.27	-0.7
Cc1ccc(C)n1Cc1ccc(C(=O)O)cc1	-1.21	0.1
CN(Cc1ccccc1)C(=O)Cn1ncn2cccc2c1=O	0.52	0.55
CC(C)n1cc(-c2cc(C(=O)NCC3CCCO3)ccc2[N+](=O)[O-])cn1 (configuration not stated)	-0.67	·
O=C(COC(=O)Cc1ccsc1)NC(c1ccccc1)c1ccccc1	-1.39	1

2 of the compounds above, as labelled records:
Cc1ccc(-c2nc(SCC(=O)NCc3ccco3)c(-c3ccc(F)cc3)[nH]2)cc1
  Ba CapD inh = 2.27
  AID504770 = -0.7
Cc1ccc(C)n1Cc1ccc(C(=O)O)cc1
  Ba CapD inh = -1.21
  AID504770 = 0.1

The listing picks up, starting 6 compounds before the break.
SMILES	Ba CapD inh	AID504770
CN(Cc1ccccc1)C(=S)NC(=O)c1ccccc1	70.8	-0.6
Cc1ccc(-c2nc(SCC(=O)NCc3ccco3)c(-c3ccc(F)cc3)[nH]2)cc1	2.27	-0.7
Cc1ccc(C)n1Cc1ccc(C(=O)O)cc1	-1.21	0.1
CN(Cc1ccccc1)C(=O)Cn1ncn2cccc2c1=O	0.52	0.55
CC(C)n1cc(-c2cc(C(=O)NCC3CCCO3)ccc2[N+](=O)[O-])cn1 (configuration not stated)	-0.67	·
O=C(COC(=O)Cc1ccsc1)NC(c1ccccc1)c1ccccc1	-1.39	1
CCCCN(C#N)c1nc(N2CCOCC2)nc(N2CCOCC2)n1	-0.17	0.85
Nc1nc2ccccc2cc1-c1cccs1	61.2	-0.3
CCCC(=O)Oc1ccc2c(=O)c(-c3ccc(OC)c(OC)c3)c(C(F)(F)F)oc2c1	-0.345	·
O=C(c1cccc2c1NC(c1ccc([N+](=O)[O-])cc1)C1CC=CC21)N1CCCC1 (configuration not stated)	-0.765	·
O=C(COC(=O)C1CCN(S(=O)(=O)c2ccccc2)CC1)Nc1ccccc1C(=O)NC1CC1	·	1.7
CCOC(=O)C(CC)Sc1nnc(NC(=O)Cc2cccs2)s1 (configuration not stated)	0.14	-0.15
Cc1ccccc1-n1cnc2cc(Nc3nnc(C)c4ccccc34)ccc21	-0.44	·
Cc1ccc(NC(=O)CC2SC(=NC(c3ccc(O)cc3)c3c(O)[nH]c(=O)[nH]c3=O)NC2=O)cc1 (configuration not stated)	-1.32	-1.3
CCOC(=O)C1=C(C)NC2=C(C(=O)C(C(=O)OCC)C(c3cccc(OC)c3)C2)C1c1ccc(OC)c(OC)c1 (configuration not stated)	12.5	·
COC(=O)c1csc2c(C(F)(F)F)cc(N3CCN(C(=O)Nc4ccccc4)CC3)nc12	1.92	·
CCCC1(CC)NC(=S)N(c2ccc(C)cc2)N1 (configuration not stated)	0.17	·
CC(C)C1C(C#N)=C(N)OC2=C1C(=O)CCC2 (configuration not stated)	-0.01	-0.15
COc1cc(C2C3=C(CC(C)(C)CC3=O)OC3=C2C(=O)CC(C)(C)C3)cc(Br)c1OC	-0.005	·
O=C(NCc1csc2ccccc12)C1CC1	0.25	-0.1
O=C(COc1ccc(-c2nccc(-c3cccs3)n2)cc1)N1CCCCCC1	0.89	·
c1ccc(N=C(c2cccs2)N2CCOCC2)cc1	·	0.6
CC(=O)N1CCSc2cc(S(=O)(=O)NCc3ccccc3)ccc21	0.43	-0.15
O=C(c1ncn[nH]1)N1CCN(c2nc(-c3ccccc3)cs2)CC1	-0.065	0.25
CCCn1cnc2c(cnn2-c2ccc(Cl)cc2)c1=O	·	1.75
CCSc1nc2c(c(=O)n1C)C1(CCCC1)Cc1ccccc1-2	1.46	·
CN1C(=O)N(C)C2(c3ccccc3)Nn3c(s/c(=C/c4ccccc4F)c3=O)=NC12c1ccccc1 (configuration not stated)	-0.25	·
COc1ccccc1-c1cc(N)n(CCC#N)n1	0.03	-0.25
Cn1c(SCc2cccnc2)ncc(C(=O)Nc2ccc(F)cc2)c1=O	·	-1.05
CC(C)=C(NC(=O)c1ccccc1)C(=O)NN=C1CCN(Cc2ccccc2)CC1	0.635	1.4

Record cards, as listed above. Values in the order: Ba CapD inh | AID504770
O=C(NCc1csc2ccccc12)C1CC1 is listed with 0.25 | -0.1
Cn1c(SCc2cccnc2)ncc(C(=O)Nc2ccc(F)cc2)c1=O is listed with · | -1.05
CCCn1cnc2c(cnn2-c2ccc(Cl)cc2)c1=O is listed with · | 1.75
O=C(c1ncn[nH]1)N1CCN(c2nc(-c3ccccc3)cs2)CC1 is listed with -0.065 | 0.25

(further entries)
SMILES	Ba CapD inh	AID504770
C=CCn1cc(/C=C2/SC(=O)N(CC(=O)OC)C2=O)c2ccccc21	19.2	1.5
CC(C)/C=C1\CC/C(=C\c2ccncc2)C1=O	-1	1.65
COc1cc2nc(SCC(N)=O)n3nc(CCn4c(C)nc5ccccc54)nc3c2cc1OC	0.33	1.75
CSc1ccc(OCOc2ccc(SC)cc2)cc1	-0.8	-0.55
CCN(CC)Cn1c(=S)oc2ccccc21	-0.93	-0.8
Cn1cccc1C(=O)NC(=O)CSc1nc2ncc(Cl)cc2[nH]1	·	-1.05
O=C(NCc1ccc2c(c1)OCO2)C12CC3CC(CC(C3)C1)C2	-0.27	-0.5
CNC(=S)N/N=C/c1cc(OC)c(OC)c(OC)c1	-0.625	·
COC(=O)C1CCCCC1C(=O)NCCSC(c1ccccc1)c1nc(OC)cc(OC)n1 (configuration not stated)	-0.59	·
NS(=O)(=O)c1ccc(N2CCOCC2)c(C(=O)O)c1	·	1.15
Cc1nc(C(F)(F)F)ccc1NC(=O)c1ccc(C(F)(F)F)cc1	-0.09	0.25
CCOC(=O)N1CCN(CC(=O)Nc2cc(C)nn2-c2nc3ccccc3s2)CC1	·	0.15
COC1=CC(C)[C@@H]2C[C@H]3OC(=O)C[C@H]4C(C)=C(OC)C(=O)C([C@@]34C)[C@@]2(C)C1=O (some centres not stated)	0.475	·
O=C(NCc1ccco1)NC(=O)c1ccc(-c2csnn2)cc1	0.94	1.2
CC(C)(CSc1nncn1/N=C/c1ccco1)NS(=O)(=O)c1ccc(Cl)cc1	·	-0.5
CCOC(=O)N1CCN(C(=O)CN(c2ccc(Cl)c(C(F)(F)F)c2)S(=O)(=O)c2ccccc2)CC1	0.32	·
CN1CCN(C(=O)c2nn3c(c2Cl)NC(c2ccc(Br)cc2)CC3C(F)(F)F)CC1 (configuration not stated)	0.345	·
Cc1ccc(Cn2c(=O)n(C3CCCC3)c(=O)c3ccccc32)c(C)c1	0.14	0.2
CCn1c(C)nc2cc(C(=O)n3cc(C(=O)c4ccccc4O)cn3)ccc21	·	-0.35
CCOC(Cn1c2ccccc2c2ccccc21)OCC	9.71	-1
O=C1/C(=C/c2ccc(N3CCOCC3)cc2)CC/C1=C\c1ccc(N2CCOCC2)cc1	8.57	0.4
COc1ccc(CONC(=Nc2ccc(C)cc2)c2nonc2N)cc1[N+](=O)[O-]	-0.435	·
Cc1ccc(Oc2ncccc2NC(=O)CC(CC(=O)O)c2ccccc2)c2c1CCC2 (configuration not stated)	-0.63	-0.9
CN1CCCN(C(=O)C2CCCO2)CC1 (configuration not stated)	0.86	-0.05
CCCCN(C)C(=O)c1noc2c1CCCCC2	-0.39	1
CC(=O)N1CCN(C(=O)c2cncc(Br)c2)CC1	0.28	1.6
Cc1ccc2c(c1)C1CN(C)CCC1N2Sc1ccc(Cl)cc1 (configuration not stated)	3.09	-0.2
Oc1cccc(N=Cc2ccc(N3CCOCC3)cc2)c1	-0.825	-0.6
OCCN1CCN(CCSc2ccccc2)CC1	-0.235	-0.2
O=C1CSCN1c1ccc(Oc2ccccc2)cc1	-0.355	0.8
Cc1cccc(-n2c(C)c(C)c3c(N)ncnc32)c1	·	-0.75
C(=N\n1cnnc1)/c1ccc(N(c2ccccc2)c2ccccc2)cc1	4.02	0.45
CCOC(=O)c1c(NC(=O)CSc2nnc(CNC(=O)c3cccs3)n2Cc2ccccc2)sc2c1CCCC2	1.79	·
CC(=O)N1CC(C(=O)O)Oc2ccc(Cl)cc21 (configuration not stated)	0.055	0.15
CS(=O)(=O)c1sc(C#N)c2c1C(=O)CCC2	-0.125	0.15
COc1ccc(C(=O)CN2CCC(N3CCCCC3)CC2)cc1	·	0.15
CNC(=O)CSc1nnc(-c2ccc(C(C)(C)C)cc2)n1-c1ccccc1	-0.45	-0.6
CCOC(=O)CSc1nc2ccccc2c(=O)n1CCN1CCOCC1	0.83	1.6
CCOC(=O)c1c(NC(C)=O)[nH]c2ccc(OC)cc12	21.4	-0.7
CN1/C(=C\P(=O)(c2ccccc2)N2CCOCC2)C(C)(C)c2ccccc21 (configuration not stated)	·	-0.9
Cc1ccc(C(=O)Nc2ccc3[nH]cc(C#N)c3c2)cc1	0.53	2.6
Cc1ccc(-c2csc(=NC(C)(C)C)n2-c2c(C)n(C)n(-c3ccccc3)c2=O)cc1	·	0.95
Cc1sc2nc(C3(C#N)Cc4ccccc4N4CCCC43)[nH]c(=O)c2c1C (configuration not stated)	·	0.25
CCCn1c(O)c(N=O)c2ccccc21	-0.3	-0.35
O=C(/C=C/c1ccccc1)C1=C(O)C(=O)N(CCO)C1c1ccc(F)cc1 (configuration not stated)	·	-0.35
COc1ccc(/C=C(\NC(=O)c2ccccc2)C(=O)NCCCn2ccnc2)cc1	-0.55	·
Cc1cccc(-n2nc3c(c2NC(=O)COc2ccc(Cl)cc2Cl)CS(=O)(=O)C3)c1C	0.11	·
CCN(CC)c1ccc(C=Nc2c(C)n(C)n(-c3ccccc3)c2=O)cc1	-0.125	·
CC(=O)C1=C(C)NC(SCC(=O)c2ccc(Cl)cc2Cl)=C(C#N)C1c1sccc1C (configuration not stated)	-1.42	·
CCN(CC)c1ccc(NC(=O)CSc2nc(C)cc(=O)[nH]2)cc1	-0.245	-0.85
COc1cc(OC)cc(C(=O)NCc2nnc(SCC(=O)N3CCc4ccccc43)n2-c2cc(OC)ccc2OC)c1	0.46	·
CC1CCC2C(=O)N(c3ccc(C(C)(C)C)cc3)C(=O)C2C1 (configuration not stated)	0.175	·
COc1cc(CO)cc(Br)c1OCC(=O)O	-0.345	0.45
CCN(CC)c1ccc(C(=O)NCCO)cc1	-0.34	0.85
CC(C)N(C(=O)CSCc1ccc(Cl)cc1)c1ccccc1	-0.245	0.1
CCOC(=O)C1CCN(/C(C)=C\C(=O)C(F)(F)F)CC1	·	-0.15
CC1CCCCN1S(=O)(=O)c1ccc(C(=O)Nc2cccc(-c3nc4ccccc4[nH]3)c2)cc1 (configuration not stated)	3.89	-0.85
CCc1ccc(NC(=O)NCC2CCN(c3ccc(OC)cc3)C2)cc1 (configuration not stated)	4.17	0
Cc1oc2ncn3nc(-c4ccncc4)nc3c2c1C	0.305	0.1
CCOC(=O)c1c(C)n(-c2ccccc2)c2cc(Br)c(OC(C)=O)cc12	0.005	·
Continued:
SMILES	Ba CapD inh	AID504770
Cc1ccc(S(=O)(=O)Nc2nc3ccccc3nc2N2CC(C)OC(C)C2)cc1 (configuration not stated)	·	-0.35
CN1C(=O)N(C)C2(c3ccccc3)Nn3c(s/c(=C/c4cccc([N+](=O)[O-])c4)c3=O)=NC12c1ccccc1 (configuration not stated)	0.01	·
CNc1nc(SCc2ccccc2Cl)nc(-c2ccccc2)c1C#N	6.67	·
Cc1ccc(-n2c(SC3CCCC3=O)nnc2-c2ccncc2)cc1C (configuration not stated)	·	0.55
COc1ccc2oc(=O)c(-c3nnc(NC4CCCCC4)s3)cc2c1	-1.18	·
Cc1cc(Nc2cnn(-c3nc4ccccc4o3)c(=O)c2Cl)ccc1Br	0.59	1.85
Cc1ccc(/C=C/c2onc3c(=O)[nH]nc(C)c23)cc1	0.24	-0.35
CCOc1ccccc1N1C(=O)CC(Nc2ccccc2)C1=O (configuration not stated)	·	1.6
CCOC(=O)C1=CN(c2ccc(C)c(C)c2)C=C(C(=O)OCC)C1c1cc(OC)c(OC)c(OC)c1	14.3	·
